Screening results as filed in PubChem.
Beta2AR agonist: activates human beta-2 adrenergic receptor causing internalization; P07550; Am2.2-beta2AR cells, FAP receptor internalization, flow cytometry; reference of the scale not given here; response, % (test concentration not listed); 340,000 compounds, 0.43% hits; AID 504454;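 active = response above a set limit, near 3 SD of response in nonfluorescent compounds, cut at about 42% in these data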;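 also: stock transfer was 100 nL into about 11 µL; a reference agonist was the positive control; negative values mostly stem from fluorescent compounds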
Target sequence (P07550 whole entry, looked up): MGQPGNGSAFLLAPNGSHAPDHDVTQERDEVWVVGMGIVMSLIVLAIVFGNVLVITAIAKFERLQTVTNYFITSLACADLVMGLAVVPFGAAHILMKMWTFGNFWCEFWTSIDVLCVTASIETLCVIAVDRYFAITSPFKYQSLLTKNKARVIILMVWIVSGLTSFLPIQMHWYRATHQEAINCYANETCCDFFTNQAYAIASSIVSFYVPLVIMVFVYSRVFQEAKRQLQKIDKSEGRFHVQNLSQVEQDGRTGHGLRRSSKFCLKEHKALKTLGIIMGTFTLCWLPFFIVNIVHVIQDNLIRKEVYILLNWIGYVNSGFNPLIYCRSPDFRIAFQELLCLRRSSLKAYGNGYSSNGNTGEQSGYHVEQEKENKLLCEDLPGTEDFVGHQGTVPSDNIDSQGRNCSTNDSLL
ALR inh: blocks human ALR sulfhydryl oxidase activity; purified ALR, DTT oxidation, H2O2 HRP-luminol luminescence; inhibition, % (no concentration beside the values); 290,000 compounds, 3.8% hits; AID 485317;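 active = mean and each replicate at 75% or more; inconclusive = only one of the two met; inactive = neither met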;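 also: stock transfer was 7.5 nL into about 7.5 µL; 0% = neutral wells and 100% = wells with inactivated enzyme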
Target sequence (P55789 whole entry, looked up): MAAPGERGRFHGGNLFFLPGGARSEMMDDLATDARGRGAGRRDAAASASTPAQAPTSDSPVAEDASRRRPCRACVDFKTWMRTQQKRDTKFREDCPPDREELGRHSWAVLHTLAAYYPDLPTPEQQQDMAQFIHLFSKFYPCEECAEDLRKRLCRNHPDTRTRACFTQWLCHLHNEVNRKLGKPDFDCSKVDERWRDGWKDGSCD
UCH37 DUB inh: human UCH37 deubiquitinating enzyme inhibition; AID 588478; purified proteasome/UCH37, Ub-AMC cleavage fluorescence; Q9Y5K5; 330,000 compounds, 0.33% hits; inhibition, % (no concentration beside the values);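 active = mean of two replicates above 20%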;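 also: 0% = compound-free wells with enzyme and 100% = wells lacking proteasome; stock transfer was 100 nL into about 20 µL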
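Material: Human UCH37 enzyme supplied as purified proteasome complex | Schedule: 30 min preincubation with enzyme, 25 min cleavage at room temperature | Detection: AMC fluorescence 355/460 nm | Measure: % inhibition of Ub-AMC cleavage fluorescence | Controls: Wells without proteasome as full block, compound-free enzyme plus substrate as uninhibited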
LANA-H2A inh: blocks KSHV LANA binding to histone H2A/H2B; Q9QR71; cell-free LANA-H2A/H2B peptide, fluorescence polarization; inhibition, % (test concentration not listed); 320,000 compounds, 0.6% hits; AID 2629; in the data active = inhibition mostly above about 10%, no sharp cut-off; inactive = mostly below about 6.7%;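 also: stock transfer was 7.5 nL into about 10 µL; 0% = median of vehicle wells and 100% = median of positive control wells; one replicate is shown; the record names a cut of 25% in any replicate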
HNF4A DNA FP: change in binding of human HNF4 alpha to DNA. 360,000 compounds, 0.3% hits. P41235. activity change, % at 10 µM. HNF4a-FITC DNA binding, fluorescence polarization, 1 h. AID 1224865; in the data active = activity change above about 30%, passing the limit was not always enough;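 also: controls were the assay level and a saturating level of protein; the project sought stronger binding though the title names inhibitors; some compounds called inactive have numbers as strong as hits; positive values seem to mean higher polarization but the record does not say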
E coli growth: inhibitors of Escherichia coli growth; 330,000 compounds, 0.21% hits; OD600, 23 h; active compounds read low; OD600 absorbance (concentration not given with the values);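 active = OD600 absorbance below the run mean of sample wells minus 3.6 SD, in any replicate, cut at about 0.56 in these data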;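 also: stock transfer was 300 nL into about 60 µL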
FGF22 binding: FGF22 (human) thermal shift binding; Q9HCT0; recombinant FGF22 thermal shift, SYPRO orange fluorescence; percent of sucrose octasulfate shift, DMSO zero; calls only at 9.99 µM; 340,000 compounds, 1.5% hits;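 active = melting point raised past a set limit in the mean and every replicate; inconclusive = no clear call; three in four hits are not shown here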
Target sequence (Q9HCT0 whole entry, looked up): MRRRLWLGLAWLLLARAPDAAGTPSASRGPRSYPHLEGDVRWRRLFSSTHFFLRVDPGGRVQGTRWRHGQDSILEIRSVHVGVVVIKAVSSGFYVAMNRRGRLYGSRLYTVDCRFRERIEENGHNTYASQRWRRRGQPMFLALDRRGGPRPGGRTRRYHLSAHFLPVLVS
Numbers without * were called inactive; i = inactive; ? = inconclusive; / = no result given. Not all compounds are listed; count on the stated rates, not on these rows.

SMILES	Beta2AR agonist	ALR inh	UCH37 DUB inh	LANA-H2A inh	HNF4A DNA FP	E coli growth	FGF22 binding
C/C(=N\N=C\c1ccc(N(C)C)cc1)c1cccc([N+](=O)[O-])c1	-4	35	/	-0.1	-0.3	/	/
COc1ccc(-n2nc(C(=O)NCC(=O)N3CCN(Cc4ccccc4)CC3)c3ccccc3c2=O)c(OC)c1	6	1	0.0	-4.3	-1.6	0.68	i
Nn1c(SCC(=O)Nc2nccs2)nnc1-c1ccccn1	1	-6	3.7	1.3	6.1	0.71	i
CCNCc1cc(Cl)cc(OC)c1OC(C)C	-1	-3	3.6	-3.4	0.6	0.71	/
O=C(O)C1CC1(c1ccccc1)c1ccccc1 (centres undefined)	2	/	6.0	-7.7	-1.3	0.71	i
CCCCc1[nH]nc2c1C1(C(=O)N(CC)c3ccccc31)C(C#N)=C(N)O2 (centres undefined)	4	3	-1.5	1.0	1.0	0.68	/
O=C(NCCCN1CCOCC1)C1CC(=O)N(c2ccccc2)C1 (centres undefined)	13	12	0.7	0.3	1.4	0.65	i
CCc1cc(C(=O)N2CCCC(C(=O)c3ccc(C(F)(F)F)cc3)C2)n(C)n1 (centres undefined)	-1	/	1.6	/	2.2	0.72	i
Cc1ccc(S(=O)(=O)N(C)CCCC(=O)Nc2cccc3ccccc23)cc1	-3	-3	0.1	-3.2	1.3	0.64	i
CCCCCCCN1C(N(C)C)=NC[C@@H]1Cc1ccccc1	5	/	-2.1	-8.4	3.2	0.71	i
Cc1ccc(-n2ccc(=O)c(C(=O)O)n2)cc1	4	-7	3.7	-1.9	-1.9	0.7	/
COc1ccc([C@H]2C=C(C(=O)O)O[C@@H](OCCCCO)C2)cc1	1	/	2.8	-6.5	0.2	/	i

One compound at a time, as listed above. Order of screens: Beta2AR agonist | ALR inh | UCH37 DUB inh | LANA-H2A inh | HNF4A DNA FP | E coli growth | FGF22 binding
COc1ccc(-n2nc(C(=O)NCC(=O)N3CCN(Cc4ccccc4)CC3)c3ccccc3c2=O)c(OC)c1 in the list: 6 | 1 | 0.0 | -4.3 | -1.6 | 0.68 | i
CCc1cc(C(=O)N2CCCC(C(=O)c3ccc(C(F)(F)F)cc3)C2)n(C)n1 (centres undefined) in the list: -1 | / | 1.6 | / | 2.2 | 0.72 | i

Remaining list, next part:
SMILES	Beta2AR agonist	ALR inh	UCH37 DUB inh	LANA-H2A inh	HNF4A DNA FP	E coli growth	FGF22 binding
CC12CCCC(C(C#N)C(N)=O)(C1)NC(=O)C2C#N (centres undefined)	4	/	/	/	-3.7	/	i
CCN(CC)Cc1ccccc1Sc1ccccc1	8	/	-0.4	3.0	-1.2	0.68	i
CCc1ccc(OCC(=O)NCCN(C)C)c(Br)c1	6	-7	3.7	-2.0	-0.8	0.69	/
COc1c(N2CCN(C(=S)NCc3ccccc3)C(C)C2)c(F)cc2c(=O)c(C(=O)O)cn(C3CC3)c12 (centres undefined)	3	-4	-13	4.9	1.6	0.079*	/
CC1C(=O)CCC1(C(=O)O)c1ccccc1 (centres undefined)	5	-12	/	4.4	1.7	/	/
Cc1cccc(C)c1OCC(=O)Nc1ccccc1C(=O)N1CCOCC1	-3	16	3.0	3.6	2.1	0.65	i
Cn1c2ccccc2c(=O)c2cc(C#CC3=CCCCC3)ccc21	3	68	-25	-2.1	-19	0.69	i
Cc1ccc(S(=O)(=O)N[C@H](C(=O)OCC(=O)NC(=O)c2cccn2C)C(C)C)cc1	-1	/	2.3	/	-0.4	0.65	i
CC(=O)N1Cc2ccccc2CC1C(=O)O (centres undefined)	-6	-5	-0.8	-1.5	-0.3	0.75	/
CCCOc1ccc(N2C(=O)CC(SC(=NC)Nc3ccc(F)cc3)C2=O)cc1 (centres undefined)	-4	-2	0.7	1.2	1.5	0.71	/
S=C(NCCc1ccccc1)N1CCN(C23CC4CC(CC(C4)C2)C3)CC1	-5	4	0.9	1.6	3.0	0.69	i
COCCSc1nnc(NC(=O)c2cc(C(=O)OC)cc([N+](=O)[O-])c2)s1	5	/	8.4	0.6	0.4	0.65	i

Reprinted from the entries so far (two entries):
SMILES	Beta2AR agonist	ALR inh	UCH37 DUB inh	LANA-H2A inh	HNF4A DNA FP	E coli growth	FGF22 binding
CC12CCCC(C(C#N)C(N)=O)(C1)NC(=O)C2C#N (centres undefined)	4	/	/	/	-3.7	/	i
CCN(CC)Cc1ccccc1Sc1ccccc1	8	/	-0.4	3.0	-1.2	0.68	i

The results go on.
SMILES	Beta2AR agonist	ALR inh	UCH37 DUB inh	LANA-H2A inh	HNF4A DNA FP	E coli growth	FGF22 binding
CC12CC3CC(C)(C1)CC(C(=O)N1CCN(C(=O)C4CCCO4)CC1)(C3)C2 (centres undefined)	8	-4	2.9	-1.5	1.8	0.66	i
Cc1ccccc1C(=O)NC(=S)N(Cc1ccccc1)c1ccccn1	-12	29	-3.6	-2.3	-1.6	0.7	i
O=C(CCS(=O)(=O)Cc1ccc(Cl)cc1)NCCc1ccccc1	-2	-6	1.2	-0.7	1.9	0.72	i
COCCN(C(=O)CSc1nc(N)cc(=O)[nH]1)c1c(N)n(Cc2ccccc2)c(=O)[nH]c1=O	-4	1	3.5	4.4	-0.4	0.63	i
C=CCN(C(=O)CCC(=O)Nc1cc(C)on1)C(C(=O)NC1CCCC1)c1ccc(OC)cc1OC (centres undefined)	-6	/	-0.5	-1.9	3.7	0.71	i
S=C(Nc1ccccc1)Nc1ccccc1-n1cccc1	-2	/	-0.9	/	0.7	0.66	i
Cc1ccc(C(=O)NCCOc2cccc3cccnc23)cc1Cl	-14	/	-25	0.1	-2.5	0.72	i
CCOC(=O)C1=C(C)Nc2nc(C)nn2C1c1cc(OC)ccc1OC (centres undefined)	-6	/	6.0	-3.2	-2.9	0.75	i
COc1cc(OC)cc(C(=O)N[C@H](C(=O)OCC(=O)Nc2sccc2C#N)C(C)C)c1	11	/	1.1	-3.3	7.4	0.69	i
COc1ccc(-c2sc(NC(C)=O)nc2-c2ccccc2)cc1	3	-9	-5.1	-2.4	-1.8	0.65	/
CCc1cc2c(N[C@@H](C)C(=O)O)ncnc2s1	1	-4	-0.5	-2.9	0.3	0.77	/
COc1ccc(COC(=O)Nc2cc3c(C(F)(F)F)nn(C)c3s2)cc1	-2	0	1.6	-2.2	1.4	0.71	/
CSc1ccccc1C(=O)OCC(=O)N1CCCCCC1	-4	0	2.1	3.5	-1.9	0.65	i
COc1ccc(NC(=O)CCNS(=O)(=O)c2ccc3c(c2)CC(C)N3C(=O)C2CC2)cc1 (centres undefined)	-17	-9	2.1	2.8	9.1	0.72	i
CCOC(=O)c1cc(C(=O)n2cc(Cl)cn2)nn1C	-6	70	2.6	3.4	5.7	0.67	/
CC(CCc1ccccc1)N(C)CC(O)c1cccc([N+](=O)[O-])c1 (centres undefined)	-13	/	3.8	2.0	-1.2	0.63	i
COc1cc(OC)c2c(-c3ccccc3)cc(=O)oc2c1C(CCN1CCOCC1)c1ccc(N(C)C)cc1 (centres undefined)	5	/	/	/	3.7	/	i
Cc1ccsc1-c1nc(CSCC(=O)NCCN2CCCC2)c(C)o1	37	98*	-12	8.5	4.1	0.67	/
COc1ccc(CNC(=O)CCC(=O)Nc2nnc(CC(C)C)s2)cc1	-3	1	4.8	-3.6	3.5	0.7	i
Cc1ccsc1/C=N/NC(=O)c1nnn(-c2nonc2N)c1-c1ccccc1	-18	-4	/	0.7	0.9	/	i
Cc1ccc(CN=c2c([N+](=O)[O-])nn(-c3ccc(Cl)cc3)n2O)cc1	-1	-2	2.3	-1.5	4.2	0.63	i
Cc1ccn(CC(=O)N2CCCC(Nc3ccc(F)c(F)c3)C2)n1 (centres undefined)	-1	4	-0.6	-2.9	1.6	0.68	i
COc1cccc(Nc2nc(NCCO)nc(N3CCCC3)n2)c1	1	/	5.1	2.3	-0.5	0.67	i
COc1cccc(CN(CC(=O)NCc2ccccc2)C(=O)c2csnn2)c1	-1	-1	-1.1	-2.7	-1.0	0.64	i
CCOc1cc(/C=C2\C(=O)NN(c3ccccc3)C2=O)cc([N+](=O)[O-])c1O	-2	95*	17	3.4	-16	0.68	i
COc1ccc(CCN(C)C2CCCN(S(=O)(=O)c3ccccc3F)C2)cc1OC (centres undefined)	-3	-10	3.6	-1.4	4.7	0.66	i
Cc1ccccc1NC(=O)c1csc2c1CCCC2	-8	1	0.8	-3.4	0.2	0.7	/
COC(=O)c1cc2sc(Cl)cc2n1CC(=O)Nc1ccc(OC)c(OC)c1OC	-2	10	1.3	-5.5	3.6	0.65	/
Cc1cccc(S(=O)(=O)N/N=c2\sc3ccccc3n2C)c1	16	55	/	3.5	0.0	/	/
CC1CCN(C(=O)CCc2nc3cc(S(=O)(=O)N(C)C)ccc3n2C)CC1	1	-6	2.3	3.4	-1.7	0.72	/
CC(=O)Nc1ccc(S(=O)(=O)NCCN2CCNC2=O)cc1Cl	4	0	0.8	1.2	6.6	0.66	i
CCOC(=O)c1oc2ccccc2c1NC(=O)c1ccc2c(c1)OCO2	-2	-5	-8.1	2.2	-0.8	0.74	/
COc1cc2c(cc1Cl)C(=O)C(F)(c1ccccc1)C(=O)N2 (centres undefined)	81*	-9	2.6	-3.3	-2.4	0.63	i
COc1ccc(S(=O)(=O)N2CCCCC2)cc1NC(=O)CN(Cc1ccco1)Cc1ccco1	18	/	2.0	1.8	8.1	0.69	i
CC(C)N(C(=O)CSc1nnnn1-c1ccc2c(c1)OCO2)C(C)C	-8	-2	4.9	0.7	-0.4	0.69	/
COc1cccc(CNC(=O)C2CCN(S(=O)(=O)c3ccc4c(c3)NC(=O)CO4)CC2)c1	5	-5	1.5	-1.0	-1.8	0.62	i
Cc1ccc(C(=O)NNC(=O)CCCCC(=O)NNC(=O)c2ccc(C)cc2)cc1	-3	-5	2.8	-1.2	0.8	0.72	i
CSc1ccc(CCNC(=O)c2ccc(CS(=O)Cc3ccc(Cl)cc3)o2)cc1 (centres undefined)	3	0	3.0	-1.0	5.9	0.7	i
N#C/C(=N\Nc1ccc(Cl)cc1)C(=O)c1ccsc1	11	?	/	1.1	-0.4	/	i
CCCn1nnnc1SCC(=O)NCc1cccs1	-1	-2	0.3	98*	3.8	0.77	/
COc1ccc(N2C(=S)N=C(Nc3ccccc3)C23CCCCC3)cc1	2	-3	0.8	-2.0	-1.0	0.72	i
C=CCn1c(SCC(=O)Nc2ccc(Cl)cn2)nnc1C1CC1	-4	-9	3.9	7.5	1.4	0.69	i
CN(CCc1nc2ccc(Cl)cc2[nH]1)Cc1nc(CC2CC2)no1	0	-2	3.9	-4.0	4.9	0.68	i
O=C(COc1ccccc1/C=C1/NC(=O)NC1=O)Nc1ccccc1	-2	-20	-1.5	1.1	-2.1	0.74	i
Cc1cccc(NC(=O)C2CCCN2C(=O)Oc2ccccc2)c1C (centres undefined)	5	-2	2.0	-1.7	2.0	0.78	/
CCC(C)N(CCNC(=O)c1ccc2c(c1)NC(=O)c1ccccc1S2)C1CCCCC1 (centres undefined)	22	-3	7.1	-1.9	3.0	0.66	i
C=CCn1c(CNC(=O)c2ccco2)nnc1SCC(=O)Nc1cccc(Br)c1	1	-10	2.3	3.9	-1.9	0.67	/
CC(=O)Nc1ccc(S(=O)(=O)Nc2cccc(-c3csc(C)n3)c2)cc1	-8	28	1.9	-2.4	1.1	0.69	/
O=C(CCNC(=O)c1ccc([N+](=O)[O-])cc1)NCc1ccccc1	2	/	2.3	/	-1.0	0.69	i
CC(NC(=O)c1cc(Br)ccc1Cl)c1ccccc1 (centres undefined)	-3	-5	4.8	5.6	1.1	0.69	i
O=C(COn1nnc2ccc(Cl)cc21)NCc1ccccc1	-1	-8	1.4	-0.9	-4.0	0.74	/
COc1ccc(N2CCN(Cc3nc4ccccc4n3C)CC2)cc1	-2	89*	0.9	3.1	-1.1	0.67	/
Cc1cc(C(=O)Nc2sc3c(c2C#N)CCC(C(C)(C)C)C3)no1 (centres undefined)	-1	-3	-79	0.5	-1.6	0.67	/
N#CC1=C2SCC(O)(c3ccccc3)N2C(=O)CC1c1ccccc1F (centres undefined)	1	/	4.7	-1.0	-0.5	0.72	/
